MARV entry inh – inhibitors of Marburg virus binding or cell entry; Marburg virus pseudotyped entry inhibition, cell reporter; control for the full effect not named in the record; about a third of the inactives were read at about 46 µM; 300,000 tested, 1.8% active; Potency, µM (doses to about 37.8 µM), for the others: top-dose activity change, negative = inhibition, actives largely listed as inhibitors; active = well fitted inhibition curve with a large enough effect; inconclusive = small, poorly fitted or top-dose-only effect, or effect the other way; inactive = flat fitted curve, though single readings scatter; tested in HEK293 cells; about a fifth of its hits are not listed in these tables; also: % is scaled to controls: 0 for no effect and ±100 for the full control effect; luciferase read-out
LASV entry inh – inhibitors of Lassa virus binding or cell entry. AID 540256. 300,000 tested, 1.2% active. Lassa virus pseudotype entry inhibition, cell reporter; control for the full effect not named in the record. Potency, µM (doses to about 37.9 µM), for the others: top-dose activity change, negative = inhibition, usual class: inhibitors; active means well fitted inhibition curve with a large enough effect; inconclusive means small, poorly fitted or top-dose-only effect, or effect the other way; inactive means flat fitted curve, though single readings scatter; tested in HEK293 cells; also: % is scaled to controls: 0 for no effect and ±100 for the full control effect; nearly all actives have a fitted effect of over 50% in size; luciferase read-out
RE007 growth inh – less growth of the S. pombe RE007 Vpr strain; AID 651644; Potency, µM (series often up to 92.2 µM), without a hit: top-dose activity change, negative = less growth; 360,000 tested, 0.21% active; S. pombe RE007 Vpr strain, BacTiter-Glo ATP luminescence, 24 h; control for the full effect not named in the record; active = well fitted falling curve with a large enough effect; inconclusive = small, poorly fitted or top-dose-only effect; inactive = no such curve, though single readings can be large or run the other way;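 also: % is scaled to controls: 0 for no effect and ±100 for the full control effect; nearly all actives have a fitted effect of over 50% in size; the assay follows cell death caused by Vpr and the record does not say whether a fall means rescue or toxicity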
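Fission yeast strain RE007, carrying one chromosomally integrated HIV-1 vpr copy, was seeded at OD 0.01 in PMG+AL medium with 23 nL pinned compound. After 24 h at 30 °C and 99% humidity, viability was read by BacTiter-Glo luminescence.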
Cruzain inh noDet – blocks cruzain activity in detergent-free assay | 200,000 tested, 2.3% active | purified cruzain, Z-FR-AMC fluorescence, no detergent | Potency, µM, without a hit: max response, negative = inhibition, actives largely listed as inhibitors | P25779 | AID 1476; active = well fitted curve in the direction sought with a large enough effect; inconclusive = small, poorly fitted or top-dose-only effect, or another doubt; inactive = no such curve, though single readings can be large; an effect the other way counts as inactive or inconclusive;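 also: plate controls were enzyme without inhibitor for no effect and buffer without enzyme for full effect; nearly all actives have a fitted effect of over 40% in size; top concentration of the series not given in the record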
Target sequence (P25779 123-467 limits assumed): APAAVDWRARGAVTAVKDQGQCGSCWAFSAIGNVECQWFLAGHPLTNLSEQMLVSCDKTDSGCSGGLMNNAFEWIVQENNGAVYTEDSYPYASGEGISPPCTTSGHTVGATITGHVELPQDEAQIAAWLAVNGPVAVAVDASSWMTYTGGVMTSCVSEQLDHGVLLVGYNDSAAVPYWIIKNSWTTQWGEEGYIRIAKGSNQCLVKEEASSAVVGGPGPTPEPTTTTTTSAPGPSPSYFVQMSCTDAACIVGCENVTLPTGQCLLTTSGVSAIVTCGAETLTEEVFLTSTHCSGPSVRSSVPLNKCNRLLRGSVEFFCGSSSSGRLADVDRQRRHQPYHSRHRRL
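Purified cruzain at 1.5 nM, pre-incubated 15 min with compound at room temperature in 100 mM sodium acetate pH 5.5, 5 mM DTT, 0.00005% Triton X-100. Reaction started with 2 uM Z-FR-AMC; AMC fluorescence increase over 60 s gives rate.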
Cruzain inh Det – blocks cruzain activity in presence of Triton detergent; purified cruzain, Z-FR-AMC fluorescence, 0.01% Triton; 200,000 tested, 0.43% active; AID 1478; P25779; Potency, µM, inactives show max response, negative = inhibition, hits mostly inhibitors; active = well fitted curve in the direction sought with a large enough effect; inconclusive = small, poorly fitted or top-dose-only effect, or another doubt; inactive = no such curve, though single readings can be large; an effect the other way counts as inactive or inconclusive;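 also: plate controls were neutral wells for no effect and buffer without enzyme for full effect; nearly all actives have a fitted effect of over 40% in size; top concentration of the series not given in the record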
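In this qHTS format, compounds are incubated with 1.5 nM cruzain for 15 min at room temperature before 2 uM Z-FR-AMC is added. Release of AMC is followed at 360/450 nm, and progress is taken as the 60 s fluorescence difference.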
SARS PLP yeast – blocks SARS-CoV papain-like protease in a yeast assay; Potency, µM (titrated, usually from 32.9 µM), for the others: at the highest dose activity, positive = growth rescue; AID 485353; 330,000 tested, 0.19% active; S. cerevisiae expressing SARS-CoV PLpro, growth rescue; control for the full effect not named in the record; also: 0% is about no effect; nearly all actives have a fitted effect of over 55% in size; growth read by luminescence after 48 h
2A StopGo – FMDV 2A StopGo reporter, luciferase signal. 410,000 tested, 1.2% active. Potency, µM (titrated, usually from 57.9 µM), for inactives: at the top dose signal change, negative = less light. AID 1159524. human cells with a luciferase reporter of 2A StopGo recoding; control for the full effect not named in the record; active = well fitted falling curve with a large enough effect; inconclusive = small, poorly fitted or top-dose-only effect; inactive = no such curve, though single readings can be large or run the other way; tested in HEK293T cells; also: % is scaled to controls: 0 for no effect and ±100 for the full control effect; nearly all actives have a fitted effect of over 45% in size; luciferase light after 4 h
NS1 function inh – influenza NS1 inhibition; S. cerevisiae slowed by influenza A NS1, growth recovery by OD600; 270,000 tested, 0.4% active; Potency, µM (titrated, usually from 46.1 µM), for inactives: top-dose activity, positive = more growth; also: actives are rising curves; nearly all actives have a fitted effect of over 50% in size
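Recovery from NS1-induced slow growth read by OD600 in budding yeast switched to galactose assay medium (pH 6.0, -URA) at 1:100 dilution. Compound 23 nl per well; the matching strain lacking NS1 serves as control.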
* marks the source's active call; other numbers are inactive results; ? = inconclusive; . = not tested or not shown; & = joins results of further samples; [ ] = dose if it differs, or a comment. Unless noted, calls follow the shape of the dose curve; as a rule, active means well fitted rising curve with a large enough effect; inconclusive means small, poorly fitted or top-dose-only effect; inactive means no such curve, though single readings can be large or run the other way. Potency is read from the fitted curve at half-maximal effect. Rows are unselected. Share with any hit: about 4.7%.

Structure	MARV entry inh	LASV entry inh	RE007 growth inh	Cruzain inh noDet	Cruzain inh Det	SARS PLP yeast	2A StopGo	NS1 function inh
CCc1ccccc1NC(=O)c1cc(S(=O)(=O)N2CCc3ccccc32)cn1C	.	.	6%	.	.	-3%	?	16%
CC(C)c1c(C(=O)N/N=C/c2cccc(OCc3ccccc3)c2)nnn1-c1nonc1N	?	?	6%	.	.	-3%	?	26%
CCCCOc1ccc(NC(=O)Cn2c(=O)ccc3c(C)cc(C)nc32)cc1	-17%	-14%	19%	?	-8.6%	-16%	-3%	-49%
Cc1cc(Cl)ccc1NC(=O)CN1CCN(C(=O)c2ccco2)CC1	9%	?	-5%	.	.	7%	-8%	3%
COc1ccc(N2CCN(C(=O)COC(=O)[C@@H](NC(=O)OCc3ccccc3)C(C)C)CC2)cc1	-15%	?	8%	.	.	.	?	.
CCOC(=O)c1ccc(NC(=O)CSc2nc(-c3ccc(OC)cc3)cc(C(F)(F)F)c2C#N)cc1	18%[46.1 µM]	8%[46.1 µM]	.	-3%	0.1%	.	-11%	.
COc1ccc(CCNC(=O)COc2ncnc3ccccc23)cc1	14%[46.1 µM]	-6%	24%	.	.	-1%	-8%	.
COc1ccccc1N1CCN(C(=O)c2ccc(Nc3nc4ccccc4n4nnnc34)cc2)CC1	-10%[46.1 µM]	9%[46.1 µM]	.	-7%	0.0%	.	7%	.
O=C(OCc1nc2ccccc2s1)C1CCN(C2=NS(=O)(=O)c3ccccc32)CC1	21%	21%	?	0%	-4.2%	1%	58%[activator]	-1%
CC1C(=O)Nc2ccccc2N1C(=O)c1ccc(Cl)c(Cl)c1 (stereo unspecified)	3%[46.1 µM]	?	5%	.	.	2%	-13%	9%
COC(=O)C1CC23C=CCN4CCC5(c6ccccc6NC15C2C)C43 (stereo unspecified)	?	?	-3%	.	.	2%	-2%	4%
CCCN(CCC)CCCNC(=O)C1CCC(CNS(=O)(=O)c2cccc3nsnc23)CC1 (stereo unspecified)	-20%&-20%[46.1 µM]	7%[46.1 µM]	-7%	8%	0.2%	1%	-14%&-20%	3%
O=C(O)c1cc(Cl)c2ccccc2c1O	6%	3%	-8%[3.69 µM]	-4%	-9.5%	-30%	-25%	-74%
CCc1ccc(-n2c(O)c(C(C)=O)c(=O)[nH]c2=O)cc1 (tested in a mixture with another compound)	10%	-6%	0%	.	.	0%	-11%	7%
Cc1nnc2sc(SCc3ccc(Cl)cc3)nn2c1=O	?	?	-3%	-2%	-2.7%	9%	0%	6%
CC(=O)N1CCc2c(sc(NC(=O)CCS(=O)(=O)c3ccccc3)c2C(N)=O)C1	.	.	11%	.	.	6%	-12%	2%
CC(C)N1CCC2(CC1)C(C#N)=C(N)NC(S)=C2C#N	0%	.	.	-6%	-11%	-21%	.	14%
Fc1ccc(NC(=S)NCc2ccccc2)cc1	.	.	1%	.	.	9%	54%[activator]	26%
CSc1cccc(NC(=O)Nc2ccc(Cl)cc2)c1	-2%[46.1 µM]	-27%	7%	-11%	-0.5%	3%	20%	-18%
O=S(=O)(NC1CC1)c1ccc(S(=O)(=O)N2CCCC(c3nc(-c4cccnc4)no3)C2)cc1 (stereo unspecified)	?	-9%	14%	?	-0.7%	-1%	?	?
CCOc1ccc(OCC)c(NC(=O)CN(C)S(=O)(=O)c2ccc3c(c2)CCCC(=O)N3)c1	.	?	.	?	-4.2%	.	?	.
O=C(c1ccc2nc(Cc3cccc(Cl)c3)oc2c1)N1CCC(O)CC1	.	.	3%	.	.	8%	-6%	0%
N#CC(c1ccc(O)cc1)c1ncc(C(F)(F)F)cc1Cl (stereo unspecified)	1%[46.1 µM]	-2%[46.1 µM]	7%	.	.	0%	-15%	.
O=C1CSC(c2ccccc2)N1c1nnc(C23CC4CC(CC(C4)C2)C3)s1 (stereo unspecified)	.	.	.	?	9.5%	0%	.	-1%
COc1cccc(NC(=O)CCc2nnc3ccc(NCc4ccco4)nn23)c1	8%[46.1 µM]	-10%[46.1 µM]	-10%	.	.	.	14%	-3%
NS(=O)(=O)c1cc(C(=O)OCC(=O)Nc2ccc(Cl)cc2[N+](=O)[O-])ccc1Cl	-2%[46.1 µM]	20%	-15%	.	.	0%	-4%	2%
CCN(CC)CCOC(=O)c1ccc(NC(=O)CCCN2C(=O)/C(=C\c3cccs3)SC2=S)cc1	.	.	-1%	.	.	1%	-22%	?
Cc1cc(C)cc(NS(=O)(=O)c2cc(C(=O)NCc3ccccn3)ccc2Cl)c1	-3%	11%	14%	-3%	-2.3%	-18%	62%[activator]	-6%
O=C(c1ccccc1F)N1CCN(S(=O)(=O)c2ccc3c(c2)OCCO3)CC1	.	.	1%	-10%	0.2%	4%	-27%	-8%
COc1ccc(N(CC(=O)Nc2ccccc2OC)S(=O)(=O)c2ccc(OC)c(OC)c2)cc1	.	.	4%	.	.	-2%	-20%	?
CCOC(=O)N1CCN(C(=O)CSc2nnc3[nH]c(=O)c(C)c(C)n23)CC1	3%	-3%	-10%	.	.	.	-16%	.
Cc1cc(OCCCC(=O)NCc2cccs2)ccc1Cl	-4%[46.1 µM]	?	-14%	6%	-4.0%	?	-22%	-20%
COc1ccc(N=C2SC(CC(=O)Nc3ccccc3)C(=O)N2CC2CCCO2)cc1 (stereo unspecified)	-24%	-13%	-1%	?	-8.3%	-7%	-25%	-49%
CC1CCOC2(O1)C(=O)Nc1ccccc12 (stereo unspecified)	-5%[46.1 µM]	25%[46.1 µM]	-5%	.	.	-1%	-8%	.
CC(=O)c1cccc(NC(=O)C(C)OC(=O)Cc2n[nH]c(=O)c3ccccc23)c1 (stereo unspecified)	2%	5%	11%	.	.	7%	-21%	22%
COc1ccc(C(=O)O)cc1S(=O)(=O)N1CCN(c2ccccn2)CC1	?	?	9%	.	.	1%	7%	8%
COc1cccc(N2CCN(C(=O)C3CCN(S(=O)(=O)c4c(C)noc4/C=C/c4ccccc4F)CC3)CC2)c1	.	-3%[46.1 µM]	.	11%	-3.9%	.	-18%	.
O=C(NC1CCCCCC1)c1cc(S(=O)(=O)N2CCCCC2)ccc1N1CCOCC1	-9%[46.1 µM]	-34%[46.1 µM]	14%	.	.	0%	-9%	.
CCN(CC)S(=O)(=O)c1cccc(-c2n[nH]c(=S)n2/N=C/c2ccc(Br)cc2)c1	?	6%	8%	-8%	-5.9%	-2%	?	21%
CCOc1ccc(NC(=O)Cn2c(=O)n(CCCS(=O)(=O)C3CCCCC3)c(=O)c3ccccc32)cc1	2%[46.1 µM]	3%[46.1 µM]	.	2%	-0.5%	.	0%	.
CCc1nnc(NC(=O)c2ccc(-c3ccc(Cl)cc3)o2)s1	23%	10%	0%	16µM*	2.8%	4%	23%	-3%
CCC1Oc2ccc(C)cc2N(CC(=O)NC2CCCCC2)C1=O (stereo unspecified)	4%[46.1 µM]	2%[46.1 µM]	18%	.	.	-2%	-2%	-19%
c1ccc(-c2nc(N3CCOCC3)sc2-c2ccccc2)cc1	?	?	3%	.	.	-25%	-9%	-14%
CNc1c(NS(=O)(=O)c2cc(NC(C)=O)ccc2C)c(=O)oc2ccccc12	2%[46.1 µM]	-11%[46.1 µM]	15%	.	.	-1%	16%	-7%
COc1cccc(NC(=O)CN(C)C(=O)c2cc(-c3cccc(Br)c3)nc3ccccc23)c1	?	?	3%	.	.	-16%	?	.
Cc1cc(C)c(-n2nnnc2SC(C)C)c(C)c1	-11%	5%	24%	4%	0.5%	9%	-24%	-20%
CCc1ccc(-c2cc(C)no2)cc1S(=O)(=O)Nc1ccc(Cl)cn1	5%&5%[46.1 µM]	-8%&-9%[46.1 µM]	-5%	-11%	-3.8%	-5%	45%&81%[activator]	-4%
COc1cccc(/C=C2/C(=O)NN(c3ccc(C)c(C)c3)C2=O)c1	13%[46.1 µM]	17%[46.1 µM]	-4%	.	.	0%	-3%	?
COC(=O)C(O)(CC(=O)Nc1cc(OC)c(OC)c(OC)c1)C(F)(F)F (stereo unspecified)	1%[46.1 µM]	4%	15%	0%	-1.1%	1%	-13%	2%
Cc1nc2sc(C(c3ccco3)N3CCOCC3)c(O)n2n1 (stereo unspecified)	1%	8%	-16%	-8%	-4.2%	8%	.	-2%

Next section.
Structure	MARV entry inh	LASV entry inh	RE007 growth inh	Cruzain inh noDet	Cruzain inh Det	SARS PLP yeast	2A StopGo	NS1 function inh
O=[N+]([O-])c1nn(-c2ccccc2)[n+]([O-])c1N1CCN(c2ccccc2F)CC1	-8%	13%	8%	.	.	3%	-25%	.
Cc1ccc(OCC(O)CN2CCCC2)cc1 (stereo unspecified)	15%	3%	-12%	.	.	0%	5%	-2%
O=C(O)C1CCCCC1C(=O)NCCc1ccncc1 (stereo unspecified)	3%	-7%	21%	3%	5.2%	-1%	-9%	4%
N#C/C(=C\c1cn(CCOc2ccccc2)c2ccccc12)C(=O)NCc1ccco1	-39%	0%	5%	1%	14%	4%	?	?
Cc1cccc2sc(NC(=O)CSc3nnnn3C)nc12	2%[46.1 µM]	4%[46.1 µM]	0%	.	.	4%	1%	-7%
CCN(CC)S(=O)(=O)c1cc(NC(=O)C(C)N(C)CC(=O)Nc2c(C)cccc2C)ccc1C (stereo unspecified)	?	?	?	?	-7.2%	-7%	0%	-21%
CC1C(=O)N2CCCc3cc(NC(=O)C(=O)NCc4ccccn4)cc1c32 (stereo unspecified)	19%	-5%	-12%	.	.	-4%	2%	.
CCOC(=O)c1c(S(=O)(=O)NCc2ccco2)c(C)n(C)c1C	.	.	4%	.	.	-3%	?	-4%
O=[N+]([O-])c1ccc(CN2C=NS(=O)(=O)c3ccccc32)cc1	-4%[46.1 µM]	13%[46.1 µM]	9%	.	.	1%	-25%	.
CCOc1ccc(N=Nc2c(=O)[nH]n3c(C)cc(C)nc23)cc1	-17%	-2%	-18%	-29%	-18%	-27%	7%	-13%
Oc1cccc(/C=N/NP(=S)(c2ccccc2)c2ccccc2)c1	-12%	1%	7%	3%	-1.2%	4%	79%[activator]	-75%

Assay outcomes (PubChem)
